Assay outcomes from PubChem.
gsp ag – qHTS for Agonist of gsp, the Etiologic Mutation Responsible for Fibrous Dysplasia/McCune-Albright Syndrome: qHTS. gsp mutant cells, cAMP HTRF, 30 min; control for the full effect not named in the record. Potency, µM (series often up to 76.9 µM), for inactives: at the highest dose activation (cAMP increase), hits mostly activators. 340,000 compounds, 0.13% hits. AID 624287, 2012; active = well fitted activation curve with a large enough effect; inconclusive = small, poorly fitted or top-dose-only effect, or another doubt; inactive = no such curve, though single readings can be large or run the other way; cell line not stated here;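 further: phosphodiesterase inhibitor Ro 20-1724 added with compounds to block cAMP breakdown; potency means the concentration at half of the fitted maximal effect; nearly all actives have a fitted effect of over 60% in size; about a fifth of the inactives were tested at one dose only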
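Cells in DMEM/10% FBS with G418 were pretreated with compounds in DMSO plus […] (300 uM stock) for 30 min at 37C. cAMP was measured by HTRF (cAMP-d2 plus anti-cAMP antibody-K) after 30 min at room temperature.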
D2 potentiator – Beta-Arrestin HTS for Positive Allosteric Modulators of the Human D2 Dopamine Receptor: Potentiators. D(2) dopamine receptor (Homo sapiens), P14416. DiscoveRx D2 beta-arrestin cells, luminescence, 90 min; 100% = 57 uM dopamine signal. potentiation, % (no concentration beside the values). 360,000 compounds, 0.23% hits; active = potentiation of 50% or more; inconclusive = 30% to 50%; inactive = 30% or less;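 further: compound concentration not given in the record; tested on top of an EC20 dose of dopamine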
Target sequence (P14416 whole entry, looked up): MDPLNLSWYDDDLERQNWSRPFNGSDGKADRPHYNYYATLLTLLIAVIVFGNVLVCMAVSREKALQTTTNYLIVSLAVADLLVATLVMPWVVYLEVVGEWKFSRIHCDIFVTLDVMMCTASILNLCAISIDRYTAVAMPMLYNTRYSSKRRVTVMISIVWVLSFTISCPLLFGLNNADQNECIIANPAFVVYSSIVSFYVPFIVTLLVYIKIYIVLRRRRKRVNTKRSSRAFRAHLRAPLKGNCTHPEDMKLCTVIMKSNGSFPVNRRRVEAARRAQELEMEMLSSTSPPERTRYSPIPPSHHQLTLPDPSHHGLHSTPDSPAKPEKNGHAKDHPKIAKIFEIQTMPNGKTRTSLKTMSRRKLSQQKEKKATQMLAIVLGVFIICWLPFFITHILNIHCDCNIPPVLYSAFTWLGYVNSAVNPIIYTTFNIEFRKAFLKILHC
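PathHunter beta-arrestin assay in DiscoveRx D2 cells. Compounds were added with an EC20 of dopamine (50 nM final) for 90 min at 37 deg C. Luminescence was read 1 h after detection reagent, with 57 uM dopamine as the EC100 control.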
Menin-MLL FL inh – qHTS Assay for Inhibitors Targeting the Menin-MLL Interaction in MLL Related Leukemias: Competition With Fluorescein Labeled MLL-derived Peptide. Fluorescence polarization, fluorescein-MLL peptide displacement from menin. FP activity change, % at 61.4 µM. 290,000 tested, under 10 active; inconclusive = falling polarisation curve, or a change in total fluorescence; inactive = total fluorescence flat and polarisation flat or rising; no compound was filed as active; the % refers to the polarisation; negative = inhibition;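 further: % of control where 0% means no effect; inhibitors lower the polarisation; unlabelled MLL peptide was the positive control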
Sfp PPTase inh – qHTS Assay for Inhibitors of Bacillus subtilis Sfp phosphopantetheinyl transferase (PPTase) | 4'-phosphopantetheinyl transferase ffp (Bacillus subtilis), Q9F4F7 | Biochemical Sfp PPTase activity, qHTS | Potency, µM, inactives show max response, negative = inhibition, most hits filed as inhibitors | 310,000 compounds, 3.5% hits | AID 1490, 2009; active means well fitted inhibition curve with a large enough effect; inconclusive means small, poorly fitted or top-dose-only effect, or another doubt; inactive means no such curve, though single readings can be large or run the other way;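 further: the enzyme is Sfp with the accession as filed and its product quenches rhodamine fluorescence; potency means the concentration at half of the fitted maximal effect; 0% = enzyme reaction without inhibitor and -100% = no enzyme wells; top concentration of the series not given in the record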
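Buffer: 50 mM Hepes-Na pH 7.6, 10 mM MgCl2, 0.01% Nonidet P-40, 0.01% BSA. Enzyme 15 nM, pre-exposed to compound 15 min; substrates then added and fluorescence change tracked over 30 min.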
TRPV1 PAM – HTS Assay for Compounds that Act as Potentiators of the Vanilloid Receptor 1 | Transient receptor potential cation channel subfamily V member 1 (Homo sapiens), Q8NER1 | TRPV1-expressing cells, Fluo-8 calcium influx, capsaicin EC20 potentiation; host cell line not named in the record; control for the full effect not named in the record | potentiation, % at 8.33 µM | 320,000 compounds, 0.02% hits | AID 540277, 2011; active means potentiation above 80%; inconclusive means 30% to 80%; inactive means below 30%; further: 0% is about no effect
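TRPV1-expressing cells were cultured overnight at 35.5C and loaded with Fluo-8 calcium dye for 40 to 90 min at room temperature. After a 10 s baseline, compound was added and calcium influx was read kinetically for 3 min (ex 480/em 520 nm).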
gsp antag – qHTS for Antagonists of gsp, the Etiologic Mutation Responsible for Fibrous Dysplasia/McCune-Albright Syndrome: qHTS | AID 624288, 2012 | 340,000 compounds, 0.4% hits | Potency, µM (doses to about 76.9 µM), inactives show top-dose activity change, negative = inhibition, actives largely listed as inhibitors | gsp-mutant cells, cAMP HTRF, 30 min; control for the full effect not named in the record; active = falling curve of any shape with a large fitted effect; inconclusive = falling curve, mostly with a smaller effect; inactive = flat or rising curve; cell line not stated here;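 further: intracellular cAMP measured with PDE inhibitor Ro 20-1724 present during compound exposure; potency means the concentration at half of the fitted maximal effect; on the % scale 0 is the no-effect control and ±100 the full control effect; nearly all actives have a fitted effect of over 65% in size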
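Measurement of cellular cAMP by homogeneous time-resolved fluorescence following a 30 min compound exposure at 37C. The PDE inhibitor […] was present throughout; the assay buffer was DPBS with 0.05% BSA and 0.005% Tween 20.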
ClpP mod – qHTS Assay for Activators of ClpP. AID 651965, 2013. ATP-dependent Clp protease proteolytic subunit (Bacillus subtilis (strain 168)), P80244. Potency, µM (top dose mostly 57.5 µM), for inactives: top-dose activity change, negative = active. 340,000 compounds, 1.9% hits. purified B. subtilis ClpP, FRET peptide cleavage, 20 min; active = well fitted falling curve with a large enough effect; inconclusive = small, poorly fitted or top-dose-only effect; inactive = no such curve, though single readings can be large or run the other way; further: potency means the concentration at half of the fitted maximal effect; the source files actives as falling curves though it sought activators and does not explain the sign; nearly all actives have a fitted effect of over 65% in size; many hits overshoot -100%
Target sequence (P80244 whole entry, looked up): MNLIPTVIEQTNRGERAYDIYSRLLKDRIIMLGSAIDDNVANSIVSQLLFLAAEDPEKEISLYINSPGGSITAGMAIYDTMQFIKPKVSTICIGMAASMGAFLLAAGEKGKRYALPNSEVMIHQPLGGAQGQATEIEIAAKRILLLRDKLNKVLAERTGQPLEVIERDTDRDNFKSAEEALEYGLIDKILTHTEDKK
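Purified B. subtilis ClpP, 10 microg/mL final in Tris/HCl pH8 with KCl, BSA, glycerol and Tween-20, cleaved an Abz/nitrotyrosine-quenched decapeptide. Fluorescence (ex 320, em 430) was read at 0 and 20 min at room temperature. Delta was normalized to 5.8 microM ADEP and DMSO/no-enzyme controls.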
Numbers without * were called inactive; ? = inconclusive; nt = no result given; & = joins results of further samples; [ ] = another dose, or the depositor's remark.

SMILES	gsp ag	D2 potentiator	Menin-MLL FL inh	Sfp PPTase inh	TRPV1 PAM	gsp antag	ClpP mod
COc1ccc(S(=O)(=O)N2CCOCC2)cc1NC(=O)COc1ccc2ccc(=O)oc2c1	?	-9	nt	nt	nt	7%	18%
CCOC(CNC(=O)CCc1c(C)nc2nc(C)nn2c1C)OCC	0%	-14	2.5	7%	5	6%	-2.0%
CC(C)NC(=O)C1CC(=O)N(CCc2ccc(F)cc2)C1 (stereo unspecified)	-58%[inhibitor]	-2	nt	nt	nt	nt	-0.9%
CCOc1ccccc1C(=O)NCCCN1CCN(CCCNC(=O)c2ccccc2OCC)CC1	-10%	-46	4.7	5%	-8	7%	-6.1%
Cc1cccn2c(=O)c(C=C(C#N)C#N)c(N3CCN(c4ccccc4)CC3)nc12	-2%[15.4 µM]	-4	-5.2	-1%	17	-22%	0.2%
CCn1nc(C(=O)Nc2ccc(S(=O)(=O)Nc3ncccn3)cc2)c2ccccc2c1=O	-1%[15.4 µM]	2	-1.7	11%	19	-47%	nt
CNS(=O)(=O)c1cccc(C(=O)OCC(=O)NCCCc2ccccc2)c1	23%	-6	-1.7	21%	9	-3%	0.7%
OCCN1CCN(CC(O)COC(c2ccc(F)cc2)c2ccc(F)cc2)CC1 (stereo unspecified)	-2%	7	-0.7	-28%	0	7%	nt
CCOC(=O)c1sc(NC(=O)CCc2ccc(OC)cc2)nc1C	?	-2	-11	15%	12	9%	nt
Cc1cnc(C(=O)Nc2nnc(SCc3c(Cl)cccc3Cl)s2)cn1	-1%	-1	0.2	-12%	-7	-22%	-8.2%
Cc1ccc(S(=O)(=O)N2CCC(C(N)=O)CC2)cc1[N+](=O)[O-]	4%[15.4 µM]	-6	-2.7	5%	?	6%	1.2%
O=C(COc1ccc(S(=O)(=O)N2CCOCC2)cc1Cl)NCC1CCCO1 (stereo unspecified)	-6%[15.4 µM]	-16	2.6	16%	3	20%	0.7%
C[C@H](CO)N1C[C@H](C)[C@H](CN(C)S(=O)(=O)c2ccc(F)cc2)Oc2ncc(Br)cc2C1=O	?	-10	nt	nt	nt	nt	-1.6%
CCOCc1nnc(NC(=O)c2cc(OC)cc(OC)c2)s1	?	-8	-1.0	-13%	-8	-3%	-1.5%
Cn1c(/C=C/c2ccc(Br)cc2)c([N+](=O)[O-])c(=O)n(C)c1=O	-27%[15.4 µM]	-4	-2.1	-14%	-7	-20%	1.9%
CCOC(=O)C1CCCN(CC(=O)NC2CC2)C1 (stereo unspecified)	?	-7	-1.0	-11%	-1	-1%	-2.5%
CC1CCC(NC(=O)CCN2C(=O)C3C4C=CC(C4)C3C2=O)CC1 (stereo unspecified)	2%	-10	1.3	10%	-4	17%	0.9%
O=C(CSc1ncccn1)NCc1cccc(Cl)c1	-60%[inhibitor]	-4	1.1	15%	12	5%	1.4%
Cc1nc2c(C#N)cnn2c2c1CCN2CC1CCCO1 (stereo unspecified)	4%	-7	4.8	5%	?	-2%	3.9%
CCN(CC)C(=O)C1=C(C)N(Cc2ccc(OC)cc2)C(=O)C(CC(=O)NCc2ccco2)C1 (stereo unspecified)	-33%	3	nt	nt	nt	nt	-2.9%
COc1ccc(C2c3[nH]c4ccccc4c3CCN2C(=O)c2ccccc2C(C)=O)c(F)c1 (stereo unspecified)	1%	-1	-4.3	-8%	?	?	-0.2%
CCN1CCN(Cc2ccc(NC(=O)c3cc(NC(=O)c4ccc5n[nH]nc5c4)cc(OC)c3)cc2C(F)(F)F)CC1	nt	-10	-1.2	14%	-6	0%	2.4%
O=C(O)c1cc(-c2ccccc2)n(-c2ccc(F)cc2)n1	?	-5	?	9%	?	-3%	nt
Cc1ccc(O)c(CNc2nc3ccccc3[nH]2)c1	8%	-47	0.2	-2%	-6	-1%	-0.3%
CCOc1ccccc1CNc1nnnn1C	-26%	-3	1.7	18%	5	8%	nt
CC(C)c1ccc(S(=O)(=O)Nc2ccc(-n3cnnn3)cc2)cc1	22%	12	nt	nt	10	-3%	-2.8%
O=C(c1ccco1)N1N=C(c2cccs2)CC1c1ccccc1O (stereo unspecified)	19%	-8	2.5	-26%	-5	-29%	?
Cc1onc(-c2ccccc2)c1C(=O)NCCN1CCOCC1	16%	6	3.9	2%	1	19%	-0.2%
CC(=O)Nc1ccc(OC(F)(F)C(F)F)c(NC(C)=O)c1	-16%	-10	-0.9	22%	12	2%	-5.8%
NS(=O)(=O)c1ccc(CCNC(=O)Nc2ccc(Cl)cc2)cc1	-57%[inhibitor]	8	0.5	7%	11	0%	-3.7%
COc1ccc(CCNC(=O)C2CC(c3c(Cl)cccc3Cl)=NO2)cc1 (stereo unspecified)	nt	0	-0.2	7%	1	-10%	0.5%
COc1cccc(CN2CCN(c3ncccn3)CC2)c1OC	-17%	10	-0.6	-20%	4	2%	0.9%
CN(C)c1ccc(NC(=O)c2ccc(Cn3cc([N+](=O)[O-])cn3)cc2)cc1	11%	-9	6.0	-2%	-4	-11%	nt
CCCCN(CCCC)S(=O)(=O)c1ccc(NC(=O)c2ccc([N+](=O)[O-])cc2Cl)cc1	-9%	?	3.6	14%	?	6%	-27%
CCOC(=O)CN1C(=O)C(O)(CC(=O)c2ccccn2)c2ccccc21 (stereo unspecified)	?	-22	2.8	-7%	nt	1%	-0.8%
O=c1[nH]nnc2sc3c(c12)CCCC3	-8%	-11	-0.2	-3%	1	-5%[15.4 µM]	-0.3%
COc1ccc(C2CC(c3cccs3)=NN2C(=O)CSc2nnnn2C)cc1OC (stereo unspecified)	-42%[inhibitor]	-2	-1.7	-8%	-5	-12%	-7.2%
COCC(C)NC(=S)N1CCN(c2ccccc2Cl)CC1 (stereo unspecified)	14%	-1	-0.1	19%	-23	0%	-1.5%
CCN1C(=O)[C@H]2[C@@H](c3ccc(C)cc3)N3C(=O)N(c4cccc(Cl)c4)C(=O)[C@@]3(C)[C@H]2C1=O	20%	-9	nt	nt	8	1%	-0.4%
CCC(c1nnc(SCC(=O)NCCc2ccc(OC)c(OC)c2)n1Cc1ccccc1)N(C)C (stereo unspecified)	-10%	-3	1.1	-3%	-1	-2%	-0.9%
COc1cc(Nc2ccc(C)cc2)c([N+](=O)[O-])nc1[N+](=O)[O-]	-2%	-7	0.5	6%	-2	-1%	0.3%
O=C(CCS(=O)(=O)c1ccccc1)Nc1nc(-c2ccc(F)cc2)cs1	-25%[15.4 µM]	-3	6.3	3%	-12	0%	nt
Cc1cnn(-c2nc(-c3cccs3)cc(C(F)(F)F)n2)c1	-4%	-9	1.3	?	-15	-10%	-23%
O=C(O)[C@@H]1CC(O)CN1C(=O)CCc1c[nH]c2ccccc12 (stereo partly specified)	-14%	4	0.5	14%	10	13%	nt
CC1(C)CC(=O)C(N=Nc2ccc(C(F)(F)F)cc2[N+](=O)[O-])=C(O)C1	-12%[15.4 µM]	-5	4.0	-2%	-8	-8%	nt
CC(Oc1cc2oc(=O)c3c(c2cc1Cl)CCC3)C(=O)NCCCn1ccnc1 (stereo unspecified)	?	-12	nt	15%	2	5%	-7.9%
Cc1cc(C)n2nc(C(=O)OCCOc3ccc(Br)cc3)nc2n1	1%	-1	-1.8	13%	5	7%	-2.8%
COc1cc(CNC2CCCC2)c(Br)cc1OC1CCCC1	17%[15.4 µM]	-21	0.7	16%	-2	5%	?
O=C(COC(=O)c1ccco1)NC1CCCCC1	22%	-16	-1.0	19%	2	-3%	-2.5%
COC(=O)c1cc(N2CCN(C)CC2)nc2ccccc12	35%	-23	?	4%	2	1%	-9.1%
COc1ccc(/C=C/C(=O)Nc2ccc(C(N)=O)cc2)cc1OC	-10%[15.4 µM]	4	1.1	22%	?	-5%	nt
CCCn1cc(S(=O)(=O)c2ccccc2)c(=O)c2cc(CC)ccc21	11%	-7	3.0	1%	-21	-17%	-11%
COc1ccc(-c2noc(CCC(=O)NCc3ccco3)n2)cc1	28%	-3	-0.4	12%	-2	7%	-1.2%
COc1ccc(/C=N/NC(=O)c2ccc(Cl)cc2)cc1Cn1cc(Cl)cn1	1%[15.4 µM]	0	-1.1	-14%	2	8%	nt
CCn1cc(C(=O)O)c(=O)c2cnc(N3CCN(C(=S)NC(=O)c4ccc(Cl)cc4)CC3)nc21	-8%	-2	3.2	28%	-4	?	-1.0%
COc1ccccc1N(CC(=O)NCCSCc1ccccc1)S(C)(=O)=O	?	3	1.8	1%	12	-1%	5.0%&0.5%
CCCn1nnnc1SCC(=O)N1CCOCC1	21%	-16	1.0	15%	1	-1%	-1.2%
CC(C)CC1C(=O)N(Cc2cn(Cc3ccco3)nn2)CCS(=O)(=O)N1Cc1ccc(-c2ccccc2)cc1 (stereo unspecified)	42%	-1	nt	nt	nt	nt	1.1%
CCc1ccccc1Nc1ncnc2ccccc12	-14%[15.4 µM]	-1	-3.5	7%	8	2%	nt
CC(C)c1ccc(CNCc2ccccc2)cc1	-23%	-32	5.4	21%	-12	-2%	-0.6%
N#Cc1c(N)nc2c(c1-c1cccs1)CCCC2	-45%[inhibitor]	-3	6.0	4%	8	6%	-19%
Cc1ccccc1C(=O)NCCn1cc(SCC(=O)NCC2CCCO2)c2ccccc21 (stereo unspecified)	-36%[inhibitor]	17	0.5	5%	-2	-13%	-0.8%
Cn1nc(-c2ccccc2)c(CO)c1Oc1ccc(F)cc1	-5%[15.4 µM]	1	2.0	8%	-1	4%	nt
